Screening data as filed in PubChem.
Mtb growth: M. tuberculosis H37Rv growth inhibitors, H37Rv strain (AID 1626); M. tuberculosis H37Rv growth inhibition; higher % means a stronger effect; inhibition, % at 10 µM; hits with a dose series show IC50 in µM; 0.95% of 220,000 active;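 active means confirmed in a dose series; inconclusive means inhibition above 80% but not taken into the dose series; inactive means below 80% or under 30% at every dose of the series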;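 further: bacteria incubated seven days before Alamar blue readout; 0% = bacteria only wells and 100% = bacteria with antibiotic wells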
RecA intein inh: blocks M. tuberculosis RecA intein splicing. P9WHJ3. cell-free RecA intein splicing, fluorescence. inhibition, %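 (about 9 µM by stock and volumes)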. 0.75% of 290,000 active. AID 2221; in the data active means inhibition above about 30%; inconclusive means no clear call, values can overlap the other calls;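 further: 0% = vehicle wells and 100% = reference inhibitor control wells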
Target sequence (P9WHJ3 whole entry, looked up): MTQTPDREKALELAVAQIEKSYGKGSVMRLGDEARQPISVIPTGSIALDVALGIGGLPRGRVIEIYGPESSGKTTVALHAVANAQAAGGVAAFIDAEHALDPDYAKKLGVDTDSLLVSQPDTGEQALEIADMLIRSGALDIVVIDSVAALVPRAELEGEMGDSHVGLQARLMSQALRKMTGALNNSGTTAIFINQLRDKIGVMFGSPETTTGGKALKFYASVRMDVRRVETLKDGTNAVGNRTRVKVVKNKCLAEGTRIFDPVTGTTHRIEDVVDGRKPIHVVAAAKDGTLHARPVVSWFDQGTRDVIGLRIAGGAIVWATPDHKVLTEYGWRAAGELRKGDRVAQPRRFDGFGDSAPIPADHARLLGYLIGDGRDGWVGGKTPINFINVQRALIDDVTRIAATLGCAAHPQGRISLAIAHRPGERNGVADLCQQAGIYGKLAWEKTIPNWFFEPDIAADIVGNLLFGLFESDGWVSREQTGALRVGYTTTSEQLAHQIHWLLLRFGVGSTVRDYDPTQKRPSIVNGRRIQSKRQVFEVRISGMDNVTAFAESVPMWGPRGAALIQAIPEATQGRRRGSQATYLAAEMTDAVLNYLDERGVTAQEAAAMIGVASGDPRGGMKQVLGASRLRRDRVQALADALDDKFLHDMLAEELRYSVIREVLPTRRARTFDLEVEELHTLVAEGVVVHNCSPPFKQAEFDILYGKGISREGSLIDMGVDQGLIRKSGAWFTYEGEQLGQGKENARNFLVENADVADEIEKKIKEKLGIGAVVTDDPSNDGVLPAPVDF
Mtb betalactam: beta-lactam sensitization of Mtb H37Rv; M. tuberculosis H37Rv growth with meropenem, percent inhibition; hits of this screen are not shown here; AID 434955; 0.27% of 330,000 active; inhibition, % at 25 µM;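 active means about 74% or more and at least 40 points above the plate without the antibiotic, then above 30% in a dose series; inconclusive means first-round hits that could not be retested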;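 further: growth measured after seven days incubation then overnight dye step; 0% = bacteria only wells and 100% = bacteria with antibiotic; twin plates without the antibiotic show which effects depend on it; some results filed as inactive read as strong as hits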
Arbovirus anti: antivirals against arbovirus infection | inhibition, % at 10 µM | 0.37% of 200,000 active | arbovirus infection cell-based antiviral screen;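 active means inhibition from about 30%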;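 further: bluetongue infection of BSR cells; cell survival read as ATP light after 72 h; 0% = infected wells without compound and 100% = uninfected wells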
YopH PTP inh: YopH (Yersinia) phosphatase inhibition; fluorescence Ex485/Em525; inhibition, %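 (about 10 µM by stock and volumes)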; 0.16% of 140,000 active; AID 898;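 active means inhibition of 50% or more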;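 further: controls were vehicle for no effect and minimum signal wells for full effect; inactives centre near -20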
Active calls of the source: *; ? = inconclusive; · = no result given.

SMILES	Mtb growth	RecA intein inh	Mtb betalactam	Arbovirus anti	YopH PTP inh
CCOC(=O)N1CCN(c2cc(=O)n(-c3ccc(OC)cc3)c(=O)[nH]2)CC1	-4%	·	-7	1	-18
Cc1ccccc1N(C(=O)c1csnn1)C(C(=O)NC1CCCCC1)c1ccncc1 (configuration not stated)	·	0.0	-5	·	·
CCCC(=O)Nc1ccc(Cl)c(NC(=O)C(C)(C)C)c1	3%	0.2	-1	8	-35
Cc1coc2c1c(C)cc1oc(=O)c(CC(=O)NCC(=O)O)c(C)c12	·	-2.7	-1	·	·
CCn1c(CC(=O)Nc2ccccc2F)nnc1SCC(=O)Nc1nnc(C)s1	·	-0.4	4	·	·
COc1ccccc1Nc1nc(N)nc(CSc2ncccn2)n1	-1%	-1.1	-16	-1	-58
Cc1ccc(N/N=C(\C#N)C(N)=S)cc1C	-1%	9.1	1	19	·
Cc1nc2ccsc2c(=O)n1-c1ccc(Cl)cc1	5%	0.8	0	6	-4
CCOc1ccc(N2C(=O)CC(SC(=NC)Nc3ccc4c(c3)OCO4)C2=O)cc1 (configuration not stated)	-4%	0.0	-6	-6	3
Cc1cccc(OCCC(=O)NCC(=O)Nc2cccc(C)c2C)c1	8%	-2.2	27	0	-18
Cc1cc(OCC(=O)NCc2ccccn2)c2c(C)cc(=O)oc2c1	·	-0.3	1	·	·
CCCCN(C(=O)c1cccs1)C1CCS(=O)(=O)C1 (configuration not stated)	·	0.0	-8	·	·
COc1ccc(NC(=O)COC(=O)c2ncc(Cl)c(Cl)c2Cl)c(OC)c1	-2%	1.3	-1	8	-25
CC1(C)N=c2ccc([N+](=O)[O-])c(N)c2=[N+]1[O-]	4%	1.0	17	·	·
CC(=O)Nc1ccc(SCC(=O)c2c(N)n(Cc3ccccc3)c(=O)n(C)c2=O)cc1	0%	-0.6	-1	·	·
Cc1cc(/C=C2\C(=O)NC(=O)N(Cc3ccccc3Cl)C2=O)c(C)n1-c1ccc(C(=O)O)cc1	0%	-2.6	1	8	·
CCOC(=O)C1(CCOC)CCN(C2C3CC4CC(C3)CC2C4)CC1 (configuration not stated)	-1%	-1.0	-3	-3	·
Cc1nc2nc(C)c(NS(=O)(=O)c3cccs3)c(=O)n2[nH]1	·	-1.4	2	·	·
CC(=O)NC1C(OC(=O)Cc2ccccc2)OC(COC(C)=O)C(OC(C)=O)C1OC(C)=O (configuration not stated)	-1%	·	3	5	·
CNNC(=S)NCCC1=CCCCC1	-2%	6.2	-1	·	·
CN1CCN(C2Cc3ccc(Cl)cc3Sc3ccc(F)cc32)CC1 (configuration not stated)	·	6.1	100	·	·
Cc1ccc(Sc2c(C)nn(C(=O)CNS(=O)(=O)c3ccc(F)cc3)c2C)cc1	-1%	8.8	3	11	-17
O=S(=O)(NCC(c1ccccc1)N1CCNCC1)c1ccc(Cl)cc1 (configuration not stated)	-5%	·	90	-20	8
CC(C)NC(=S)NNC(=O)C12CC3CC(CC(C3)C1)C2	-6%	-1.1	-5	4	-24
COc1ccc(F)cc1S(=O)(=O)N1CCC2(CC1)OCCN2S(=O)(=O)c1cccs1	·	-1.0	-9	·	·
Cc1cc(C)n(-c2nc3ccccc3c(=O)n2OCc2ccc(F)cc2)n1	6%	1.9	5	6	-21
CCOc1cc(C(=O)OCc2ccc(C(=O)OC)o2)cc(Br)c1OC	-10%	-3.9	?	6	-18
O=C(c1cc2ncccn2n1)N1CCc2c([nH]c3ccccc23)C1c1ccccc1F (configuration not stated)	4%	8.3	4	-19	·
Cc1ccnc(NC(=O)c2cc(-n3cnnc3)ccc2Cl)c1	-3%	-0.6	-12	1	-30
C=CCn1c(-c2ccc3[nH]c(C)c(C)c3c2)n[nH]c1=S	4%	-1.0	18	2	-7
COc1ccccc1-c1nc(-c2ccccc2)[nH]c(=O)c1C#N	·	-2.6	-6	2	·
OCCN1CCN(C(=S)c2ccc(Br)cc2)CC1	·	-3.2	-4	-3	-16
CCC/C(=N\NC(=O)CNC(=O)c1ccc(Cl)cc1)c1ccccc1	3%	0.3	-5	-6	·
COc1cccc(Nc2nc(-c3ccc4c(c3)OCCO4)cs2)c1	8%	0.4	21	-25	-9
CCCCN(CC)S(=O)(=O)c1ccc(C(=O)Nc2nnc(COC)o2)cc1	-1%	2.4	24	-14	-46
COc1ccccc1CC(=O)Nc1c[nH]c(=O)[nH]c1=O	0%	-0.7	-1	11	-1

Part of the list above with just RecA intein inh:
SMILES	RecA intein inh
COc1ccc(F)cc1S(=O)(=O)N1CCC2(CC1)OCCN2S(=O)(=O)c1cccs1	-1.0
Cc1cc(C)n(-c2nc3ccccc3c(=O)n2OCc2ccc(F)cc2)n1	1.9

(more compounds)
SMILES	Mtb growth	RecA intein inh	Mtb betalactam	Arbovirus anti	YopH PTP inh
CN1CCN(S(=O)(=O)c2ccc(Nc3ccc(F)cc3)nc2)CC1	·	-1.7	-12	·	·
N/C(=N\OC(=O)c1ccc([N+](=O)[O-])cc1)c1cccnc1	-1%	1.9	8	-12	-30
Nc1ccc(Oc2ccc(F)cc2)nc1	?	8.0	95	·	·
Cc1c(C(=O)N2c3ccccc3Sc3ccccc32)cccc1[N+](=O)[O-]	5%	1.3	0	1	-19
COC(=O)c1ccccc1NC(=O)Cn1c(=O)n(Cc2ccccc2)c(=O)c2c(C)c(C)sc21	-4%	0.0	3	6	-39
N#Cc1cccc(S(=O)(=O)NCC(=O)NCCCc2ccccc2)c1	·	0.4	4	·	·
COc1cc2[nH]c3c(=O)n(N)c(=O)[nH]c3c2cc1OC	·	-2.3	4	·	·
CCN1CCN(CC(=O)Nc2sc3c(c2C#N)CCC(C)C3)CC1 (configuration not stated)	-1%	-0.1	-12	-21	-41
Cc1ccccc1S(=O)(=O)N(CC(O)CN1C(=O)NC(C)(C)C1=O)c1ccccc1 (configuration not stated)	·	-0.4	-5	·	·
COC(=O)c1sccc1NC(=O)c1ccc(OC)cc1OC	3%	-0.4	4	4	27
CCCNC(=O)Nc1ccccc1C(=O)Nc1ccc(OC)cc1	7%	0.7	-7	2	-17
O=C(CN1CCN(S(=O)(=O)N2CCCCC2)CC1)Nc1cc(Cl)cc(Cl)c1	·	4.5	-8	·	·
CCCCn1c(N)c(N(CC(C)C)C(=O)c2ccc(F)c(S(=O)(=O)N3CCOCC3)c2)c(=O)[nH]c1=O	·	-3.2	-1	·	·
Fc1ccccc1N1CC(c2ccccc2)C(c2cccs2)=N1 (configuration not stated)	13%	·	6	14	-12
N=C1/C(=C\c2ccc(-c3cccc(C(=O)O)c3)o2)C(=O)N=C2SC=C(c3ccccc3)N12	-4%	5.4	4	·	·
COc1ccc(CCNC(=O)CSc2nccc(=O)[nH]2)cc1OC	-1%	1.6	0	5	·
CC1SCC(=NOCc2c(Cl)cccc2Cl)CS1 (configuration not stated)	-1%	-0.7	4	·	·
Cc1ccc(S(=O)(=O)N2CCCOC2CNC(=O)C(=O)NCc2ccccc2C)cc1 (configuration not stated)	·	0.9	5	·	·
O=C1CCCc2c1nc(-c1ccco1)n2O	-6%	1.5	-3	8	-63
C=CCNC(=O)/C(C#N)=C/c1c(N(Cc2ccccc2)Cc2ccccc2)nc2ccccn2c1=O	4%	1.5	?	8	-10
O=C1NC(=O)C(C(CC(=O)c2ccccc2)c2ccccc2)C(=O)N1 (configuration not stated)	3%	-1.8	2	3	·
CCn1cnc2c1c(=O)n(CC(=O)N1CCc3ccccc31)c(=O)n2Cc1ccccc1	-3%	1.4	-13	2	-39
CC(=O)Oc1ccc(C(=O)c2ccccc2)c(OC(C)=O)c1	5%	2.8	7	6	·
CC(C)Oc1ccc2nnnn2n1	·	0.0	-3	0	-65
CC[C@]1(c2cccc(C)c2)C(=O)N(C(=O)OC)N1C(=O)OC	·	1.0	-7	·	·
O=C(CSc1nnc(-c2ccncc2)o1)Nc1cccc(F)c1	·	0.7	-2	·	·
CC(C)(C)c1ccc(Oc2ccc(NC(=O)CCCC(=O)O)cn2)cc1	-2%	0.3	-9	·	·
Cc1cccn2cc(CCNC(=O)c3ccco3)nc12	-3%	-3.6	0	4	-39
Cc1cccc(N=Cc2c(O)cc(C)oc2=O)c1	3%	0.3	-8	1	·
Cc1cccc(OCCCCNCc2ccccc2)c1	4%	-0.5	-10	5	·
Cc1nc2cc(S(=O)(=O)N3CCC(C(=O)O)CC3)ccc2n1C1CCCC1	-15%	-2.4	-12	5	-35
c1ccc(Oc2ncnc3oc(-c4ccccc4)cc23)cc1	6%	0.0	-18	-8	-68
NS(=O)(=O)c1ccc(NC(=O)/C=C/c2cn(-c3ccccc3)nc2-c2cccc(Cl)c2)cc1	9%	-7.4	-1	1	·
Cc1ccc(S(=O)(=O)NNC(=O)c2sc(=S)n(C)c2C)cc1	7%	-2.3	3	-2	-31
CSCC(O)Cn1ncc2ccccc2c1=O (configuration not stated)	-9%	-3.2	-9	·	·
Cc1ccc(C(=O)COC(=O)CNC(=O)C(c2ccccc2)c2ccccc2)cc1[N+](=O)[O-]	-12%	-3.0	-8	-1	12
Cc1cccc(NC(=O)CN2C(=O)S/C(=C\c3cc(C)n(C)c3C)C2=O)c1	0%	-2.9	13	-23	-1
CCOc1cc(/C=C(/C#N)c2nc3ccccc3[nH]2)ccc1OCc1ccc(C(=O)O)o1	3%	-9.8	2	14	7
N#Cc1ccc(CSc2nnc(NC(=O)C3CCCO3)s2)cc1 (configuration not stated)	-1%	0.3	12	2	-38
CCc1ccc2c(c1)cc(C)c1nnc(SCC(=O)Nc3cc(OC)c(OC)cc3C(=O)O)n12	-3%	-1.4	-6	2	·
O=C(C[n+]1cccc(/C=N/O)c1)N(Cc1ccccc1)Cc1ccccc1	-6%	0.8	-2	·	·
NC1=C([N+](=O)[O-])C(c2ccc3c(c2)OCO3)c2c(c3ccccc3oc2=O)O1 (configuration not stated)	6%	-3.8	-11	·	·
CCN(CC)C(=O)CN(C#N)c1nc(C)cc(C)n1	-11%	-2.5	-5	-5	-10
CCOc1ccc2nc(-c3ccccc3)nc(SCC(=O)Nc3ncc(C)s3)c2c1	-1%	-1.6	4	-5	-7
NS(=O)(=O)c1ccc(CCNC(=O)c2ccc3ccccc3n2)cc1	3%	0.4	10	6	·
COc1cccc(NCc2nnc(SCC(=O)NC3CCS(=O)(=O)C3)n2C2CCCCC2)c1 (configuration not stated)	·	-4.2	-5	·	·
Cc1cc(NC(=O)CSc2nnc(NCc3ccccc3)s2)no1	6%	0.4	-5	·	·
O=C(NCc1ccc(F)cc1)C1CCCN1C(=O)Nc1ccc(Cl)cc1 (configuration not stated)	·	-0.5	1	·	·

Compound profiles, from the list above.
CN1CCN(S(=O)(=O)c2ccc(Nc3ccc(F)cc3)nc2)CC1 reads Mtb growth: ·; RecA intein inh: -1.7; Mtb betalactam: -12; Arbovirus anti: ·; YopH PTP inh: ·
COc1ccc(NC(=O)COC(=O)c2ncc(Cl)c(Cl)c2Cl)c(OC)c1 reads Mtb growth: -2%; RecA intein inh: 1.3; Mtb betalactam: -1; Arbovirus anti: 8; YopH PTP inh: -25
CC(C)Oc1ccc2nnnn2n1 reads Mtb growth: ·; RecA intein inh: 0.0; Mtb betalactam: -3; Arbovirus anti: 0; YopH PTP inh: -65

(further entries)
SMILES	Mtb growth	RecA intein inh	Mtb betalactam	Arbovirus anti	YopH PTP inh
Cc1cccc2cc(CN(CC3CCCO3)S(=O)(=O)c3ccccc3)c(=O)[nH]c12 (configuration not stated)	·	2.8	0	·	·
O=C(Oc1ccc(=O)n(-c2ccccc2)n1)c1cccc(Cl)c1	2%	1.0	2	2	4
CCC(C)[C@H](NC(=O)C1CC(=O)N(c2ccc(OC)cc2)C1)C(=O)N1CCCCC1 (some centres not stated)	·	-1.1	-1	·	·
O=C(NCC1CCCO1)C1CCCN(S(=O)(=O)c2ccc(F)cc2)C1 (configuration not stated)	·	-8.1	-2	·	·
C=CCN(c1ccccc1OC)S(=O)(=O)c1ccc(Cl)c(C(=O)Nc2ccc(N3CCOCC3)cc2)c1	1%	0.3	1	-9	·
COC(=O)c1ccc(NC(=O)C(C)N2C(=O)c3ccccc3C2=O)cc1 (configuration not stated)	1%	2.3	8	3	12
C/C(=N\NC(=O)CCc1c(C)n[nH]c1C)c1ccc([N+](=O)[O-])cc1	-6%	0.8	-1	·	·
CCN1CCN(CCCNC(=O)CN2C(=O)c3cccnc3Oc3ccc(Cl)cc32)CC1	·	4.7	?	·	·
C=CCN1C(=O)CSc2ccc(C(=O)NC(C)c3ccccc3)cc21 (configuration not stated)	·	0.9	-4	·	·
COc1cccc(OCc2cc(/C=N/n3cncn3)ccc2OC)c1	0%	1.3	-4	·	·
COc1cc(NS(C)(=O)=O)cc(OC)c1OC	0%	-7.3	-6	4	·

An excerpt (hit frequency here may not be typical).
